gsp antagonist – qHTS for Antagonists of gsp, the Etiologic Mutation Responsible for Fibrous Dysplasia/McCune-Albright Syndrome: qHTS; gsp-mutant cells, cAMP HTRF, 30 min; control for the full effect not named in the record; Potency, µM (top dose mostly 76.9 µM), inactives show at the highest dose activity change, negative = inhibition, hits mostly inhibitors; actives 0.4% (n = 340,000); AID 624288, 2012; active = falling curve of any shape with a large fitted effect; inconclusive = falling curve, mostly with a smaller effect; inactive = flat or rising curve; cell line not stated here;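 also: intracellular cAMP measured with PDE inhibitor Ro 20-1724 present during compound exposure; potency is read from the fitted curve at half-maximal effect; % is scaled to controls: 0 for no effect and ±100 for the full control effect; nearly all actives have a fitted effect of over 65% in size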
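Cells, 2000/well, grown 16–24 h in DMEM 10% FBS with 0.5 mg/ml G418, then compounds plus […] (300 uM addition stock), 30 min at 37C. cAMP read by HTRF (cAMP-d2 and anti-cAMP antibody-K in lysis buffer) after 30 min RT.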
Sfp inh – qHTS Assay for Inhibitors of Bacillus subtilis Sfp phosphopantetheinyl transferase (PPTase). Potency, µM, for inactives: max response, negative = inhibition, actives largely listed as inhibitors. Biochemical Sfp PPTase activity, qHTS. 4'-phosphopantetheinyl transferase ffp (Bacillus subtilis), Q9F4F7. actives 3.5% (n = 310,000); active = well fitted inhibition curve with a large enough effect; inconclusive = small, poorly fitted or top-dose-only effect, or another doubt; inactive = no such curve, though single readings can be large or run the other way;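 also: the enzyme is Sfp with the accession as filed and its product quenches rhodamine fluorescence; potency is read from the fitted curve at half-maximal effect; 0% = enzyme reaction without inhibitor and -100% = no enzyme wells; top concentration of the series not given in the record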
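After 15 min at room temperature with compound, 15 nM Sfp received 5 uM rhodamine-CoA plus 12.5 uM BHQ-2-ybbR (50 mM Hepes pH 7.6, 10 mM MgCl2). Rate came from the fluorescence difference over 30 min, ex 525/em 598 nm.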
Menin MLL FP FL – qHTS Assay for Inhibitors Targeting the Menin-MLL Interaction in MLL Related Leukemias: Competition With Fluorescein Labeled MLL-derived Peptide; AID 1766, 2009; FP activity change, % at 61.4 µM; Fluorescence polarization, fluorescein-MLL peptide displacement from menin; 290,000 tested, under 10 active; inconclusive = falling polarisation curve, or a change in total fluorescence; inactive = total fluorescence flat and polarisation flat or rising; no compound was filed as active; the % refers to the polarisation; negative = inhibition;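 also: % of control where 0% means no effect; inhibitors lower the polarisation; unlabelled MLL peptide was the positive control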
gsp agonist – qHTS for Agonist of gsp, the Etiologic Mutation Responsible for Fibrous Dysplasia/McCune-Albright Syndrome: qHTS | gsp mutant cells, cAMP HTRF, 30 min; control for the full effect not named in the record | Potency, µM (doses to about 76.9 µM), for inactives: at the highest dose activation (cAMP increase), usual class: activators | actives 0.13% (n = 340,000); active = well fitted activation curve with a large enough effect; inconclusive = small, poorly fitted or top-dose-only effect, or another doubt; inactive = no such curve, though single readings can be large or run the other way; cell line not stated here;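 also: phosphodiesterase inhibitor Ro 20-1724 added with compounds to block cAMP breakdown; potency is read from the fitted curve at half-maximal effect; nearly all actives have a fitted effect of over 60% in size; about a fifth of the inactives were tested at one dose only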
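Cells stably selected in G418 were plated at 2000/well, grown 16-24 hr, then given compounds in DMSO with the PDE inhibitor […] (300 uM solution added) for 30 min at 37C; cAMP was read by HTRF.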
CtBP-E1A inh – qHTS Assay for Inhibitors of the CtBP/E1A Interaction. AlphaScreen GST-E1A/His-CtBP binding, 1536-well; active compounds read low; control for the full effect not named in the record. activity change, % (no concentration beside the values). actives 0.49% (n = 340,000); in the data active means activity change below about -65%; inconclusive means about -30% to -65%; inactive means above about -30%; also: % is scaled to controls: 0 for no effect and ±100 for the full control effect
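Homogeneous bead-based format: GST-tagged E1A captured on glutathione donor beads, His-tagged CtBP on nickel acceptor beads; compounds precede bead addition by 2 h at 37 °C.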
ClpP mod – qHTS Assay for Activators of ClpP. purified B. subtilis ClpP, FRET peptide cleavage, 20 min. Potency, µM (highest dose often 57.5 µM), inactives show at the highest dose activity change, negative = active. actives 1.9% (n = 340,000). AID 651965, 2013; active = well fitted falling curve with a large enough effect; inconclusive = small, poorly fitted or top-dose-only effect; inactive = no such curve, though single readings can be large or run the other way; also: potency is read from the fitted curve at half-maximal effect; the source files actives as falling curves though it sought activators and does not explain the sign; nearly all actives have a fitted effect of over 65% in size; many hits overshoot -100%
Target sequence (P80244 whole entry, looked up): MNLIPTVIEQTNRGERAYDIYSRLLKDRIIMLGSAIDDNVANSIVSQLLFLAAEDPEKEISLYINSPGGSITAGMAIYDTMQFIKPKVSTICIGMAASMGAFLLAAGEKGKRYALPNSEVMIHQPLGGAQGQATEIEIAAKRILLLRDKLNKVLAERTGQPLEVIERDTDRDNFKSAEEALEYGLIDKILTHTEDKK
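ClpP 10 microg/mL final, pH 8 Tris/KCl buffer with BSA, glycerol, Tween-20; compound pinned in; FRET-FV substrate; RT 20 min; Ex320/Em430; ΔFRET vs ADEP 5.8 microM, DMSO, no enzyme.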
TRPV1 PAM – HTS Assay for Compounds that Act as Potentiators of the Vanilloid Receptor 1; Transient receptor potential cation channel subfamily V member 1 (Homo sapiens), Q8NER1; TRPV1-expressing cells, Fluo-8 calcium influx, capsaicin EC20 potentiation; host cell line not named in the record; control for the full effect not named in the record; potentiation, % at 8.33 µM; actives 0.02% (n = 320,000); AID 540277, 2011; active means potentiation above 80%; inconclusive means 30% to 80%; inactive means below 30%; also: 0% is about no effect
Target sequence (Q8NER1 whole entry, looked up): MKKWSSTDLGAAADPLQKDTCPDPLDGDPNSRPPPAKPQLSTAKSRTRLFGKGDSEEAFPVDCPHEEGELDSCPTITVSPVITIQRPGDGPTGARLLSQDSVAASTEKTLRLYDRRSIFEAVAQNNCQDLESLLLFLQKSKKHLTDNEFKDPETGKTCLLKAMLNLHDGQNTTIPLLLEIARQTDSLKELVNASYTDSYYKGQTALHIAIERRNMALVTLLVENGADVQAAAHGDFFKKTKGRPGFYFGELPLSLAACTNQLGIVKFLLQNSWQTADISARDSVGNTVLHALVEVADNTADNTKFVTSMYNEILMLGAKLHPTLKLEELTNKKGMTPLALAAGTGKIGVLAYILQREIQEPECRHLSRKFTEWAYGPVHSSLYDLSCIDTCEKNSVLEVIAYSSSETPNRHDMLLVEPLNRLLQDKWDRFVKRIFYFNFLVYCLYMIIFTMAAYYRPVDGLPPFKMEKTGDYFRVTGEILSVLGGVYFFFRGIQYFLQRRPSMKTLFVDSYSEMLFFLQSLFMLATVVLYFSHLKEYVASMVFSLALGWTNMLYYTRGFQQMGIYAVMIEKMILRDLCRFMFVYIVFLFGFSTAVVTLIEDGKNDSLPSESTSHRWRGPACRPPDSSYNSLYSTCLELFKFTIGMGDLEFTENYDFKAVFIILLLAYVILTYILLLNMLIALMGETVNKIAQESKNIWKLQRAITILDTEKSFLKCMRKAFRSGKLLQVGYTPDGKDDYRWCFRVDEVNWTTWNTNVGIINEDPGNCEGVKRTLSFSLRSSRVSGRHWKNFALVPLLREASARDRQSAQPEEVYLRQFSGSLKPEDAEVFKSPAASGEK
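Fluo-8 calcium influx in TRPV1-expressing cells, kinetic read (ex 480/em 520 nm). Compound added and read 3 min for agonist activity, followed by capsaicin at EC20 final and 2 min further read for enhancement.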
The depositor's hits bear a star; u = inconclusive; x = no result given; & = joins results of further samples; [ ] = remark or other dose.

canonical_smiles	CtBP-E1A inh	gsp agonist	Sfp inh	gsp antagonist	TRPV1 PAM	Menin MLL FP FL	ClpP mod
Cc1ccc2c(c1)NC(=O)C(CC(=O)NCCN(CC(C)C)CC(C)C)O2 (stereo not drawn)	-14	11%	-14%	-1%	-43	4.1	-2.1%
COc1ccc(-c2cn(-c3ccc(Cl)cc3)c3[n+]2CCCCC3)cc1	-2	-10%[15.4 µM]	-4%	11%	-34	-3.4	-2.7%
CC[C@]12c3[nH]c4ccc(OC)cc4c3CCN1C(=O)C(CC(=O)NCCCOC)C[C@@H]2C(=O)N1CCN(C(=O)c2ccco2)CC1 (stereo partly drawn)	3	x	x	8%	x	x	1.2%
Cc1ccc(C(=O)OCC(=O)Nc2ncc(C(F)(F)F)cc2Cl)cc1NC(=O)c1ccco1	1	0%	4%	-24%	-1	3.2	-1.5%
Cc1sc2ncnc(Oc3ccc(-n4ccnc4)cc3)c2c1C	-7	-27%	-19%	-21%	-13	0.3	-3.3%
O=C(c1ccc(F)cc1)N1CCC(c2ccccc2)C1 (stereo not drawn)	2	-3%[15.4 µM]	12%	0%	-1	1.3	x
CCc1ccc(CN(C)C(=O)CCc2nc3ccccc3n(-c3ccc(OC)cc3)c2=O)cc1	0	5%[15.4 µM]	0%	u	0	0.1	0.1%
Cc1ccc(-c2cc(C(=O)O)c3ccccc3n2)c(C)c1	x	30%	13%	-13%	-28	-1.0	3.3%
COC(=O)COc1ccc(S(=O)(=O)NCc2cccnc2)cc1	-1	0%	12%	-9%	-7	3.3	-0.5%
COc1ccccc1C(=O)NC(=Nc1nc2ccccc2o1)NC(=O)c1ccccc1OC	-3	-1%	-4%	u	-3	2.5	x
COc1ccc(-c2noc(N3CCC(C(=O)Nc4ccccc4Cl)CC3)n2)cc1	8	u	-5%	-12%	2	-6.8	-3.1%
COc1ccccc1NS(=O)(=O)c1cccc(NC(=O)NCCCl)c1	10	u	3%	-5%	-7	8.1	-1.0%
CC1CCN(c2nc3c(c(=O)[nH]c(=O)n3C)n2CCSc2nc3ccccc3o2)CC1	x	x	12%	x	4	4.8	x
CC(C)(C)C(=O)NC(=S)N1CCc2ccccc21	x	-15%	-27%	3%	-4	-3.1	-0.3%
CN(Cc1ccccc1)c1ncnc2sccc12	-2	2%[15.4 µM]	3%	-4%	21	1.1	x
Cc1ccc(S(=O)(=O)N2CCC(C(=O)Nc3ccncc3)CC2)cc1	10	7%[15.4 µM]	x	6%	3	x	2.1%
Cn1cc(Br)c(C(=O)N2CCc3ccccc32)n1	13	-34%[inhibitor]	27%	3%	12	1.0	-1.1%
O=C(NCC(=O)N1CCN(c2ccccc2O)CC1)c1cccs1	1	-21%[15.4 µM]	x	2%	14	x	x
C=CCn1c(SCC(=O)Nc2ccccc2OC)nnc1-c1ccco1	x	x	7%	x	4	4.7	x
O=C1c2ccccc2C(=O)C1(CO)c1ccc(OC(F)F)cc1	-16	10%	26%	3%	4	-2.7	-2.4%
Cc1noc(C)c1S(=O)(=O)NCc1ccc2c(c1)OCO2	3	-53%[inhibitor]	18%	8%	x	-0.1	-1.9%
COc1cc(C(=O)NCc2nnc(SCC(=O)Nc3c(C)cc(C)cc3C)o2)cc(OC)c1OC	-6	u	2%	6%	u	x	0.0%
CCn1cc(C(=O)NCCC(C)C)c(=O)c2cc(S(=O)(=O)N3CCCCC3)ccc21	-11	-2%	-4%	-12%	-11	3.2	1.1%
O=C1CNC(=S)N1CCOc1ccccc1	1	1%[15.4 µM]	17%	-11%	-2	3.6	x
CCc1nc(SCC(=O)Nc2nnc(CC)s2)c2c(=O)n(C)c(=O)n(C)c2n1	3	u	-11%	-1%	7	x	-0.3%
C/C=C1\NC(=O)[C@H](CC(N)=O)N(C)C(=O)C([C@@H](C)O)NC(=O)C(CCCc2ccc(OC)cc2)NC(=O)[C@H](C(C)C)NC(=O)/C(=C\C)NC(=O)[C@H](O)[C@@H](C[C@@H](O)CCCCCCC)NC(=O)[C@H](C)NC(=O)CN(C)C(=O)[C@H](CCC(N)=O)NC1=O (stereo partly drawn)	5	x	x	6%	x	x	2.0%
CC(=O)NC1CC2CCCC(C1)N2C(=O)Nc1ccc(Cl)cc1 (stereo not drawn)	4	-7%	x	x	x	x	1.6%
CN(Cc1ccc2nsnc2c1)C(=O)C1CCC(=O)N(CCc2ccccc2)C1 (stereo not drawn)	-23	-76%	x	x	x	x	-21%
C[C@@H](C(=O)Nc1ccc2ccccc2c1)[C@H]1C[C@]1(C)[C@H](NC(=O)OCc1ccccc1)c1ccccc1	0	x	0%&33%	-16%	19	2.7&-2.0	-23%
O=C(COC(=O)c1cncc(Br)c1)NCc1ccc(Cl)cc1	7	u	0%	10%	-6	8.4	-0.6%

Quoted at random: two records from the list, in no set order.
canonical_smiles	CtBP-E1A inh	gsp agonist	Sfp inh	gsp antagonist	TRPV1 PAM	Menin MLL FP FL	ClpP mod
CC(=O)NC1CC2CCCC(C1)N2C(=O)Nc1ccc(Cl)cc1 (stereo not drawn)	4	-7%	x	x	x	x	1.6%
CCc1nc(SCC(=O)Nc2nnc(CC)s2)c2c(=O)n(C)c(=O)n(C)c2n1	3	u	-11%	-1%	7	x	-0.3%

Further entries follow:
canonical_smiles	CtBP-E1A inh	gsp agonist	Sfp inh	gsp antagonist	TRPV1 PAM	Menin MLL FP FL	ClpP mod
COc1ccc(S(=O)(=O)Nc2cccc(-c3ccc(N4CCCCCC4)nn3)c2)cc1OC	-16	-4%	-1%	25µM*	u	x	-6.3%&-3.5%
CCOC(=O)N1CCC(NC(=O)c2ccc3c(c2)N(Cc2ccccc2)CCS3)CC1	-8	6%	-25%	u	-7	-1.9	4.4%
Cc1ncc([N+](=O)[O-])n1Cc1cccc(F)c1	3	0%	27%	12%	-3	1.0	0.5%
COc1ccc(CC(=O)Nc2nc(-c3cc(OC)ccc3OC)cs2)cc1	0	9%[15.4 µM]	14%	-26%	-2	5.3	x
O=C(Nc1cc(Br)ccc1O)c1cnn2c(C(F)F)cc(C3CC3)nc12	-8	u	6%	-14%	21	-0.2	x
C=CCN1CCS(=O)(=O)N(Cc2ccccc2)[C@@H](C(C)C)C1=O	-2	x	x	-5%	x	x	-2.8%
CC(=O)Nc1cc(S(=O)(=O)C(F)(F)F)ccc1Cl	-1	2%	7%	-7%	-2	-4.6	1.7%
O=C(CCS(=O)(=O)Cc1ccccc1)N1CCc2ccccc2C1	10	-15%	7%	10%	-9	2.3	0.8%
CCN(CC(=O)Nc1ccccc1C(F)(F)F)C(=O)c1cccc(S(=O)(=O)N2CCN(C)CC2)c1	-22	-30%[15.4 µM]	x	9%	3	x	x
CN(C(=S)NC(=O)C1(C)CC1(Cl)Cl)c1ccccc1 (stereo not drawn)	13	-29%	-9%	4%	1	0.7	-2.3%
CC(=O)c1ccc(Nc2ncnc3c2oc2ccccc23)cc1	-2	-7%	-16%	-3%	-11	-1.7	3.2%
CN1CCN(Cc2c(O)ccc3c(-c4ccccc4)cc(=O)oc23)CC1	-5	8%	4%	-2%	1	1.7	-5.0%
CC(C(=O)N=Nc1c(O)n(C)c2ccc(Br)cc12)n1cnc2ccccc2c1=O (stereo not drawn)	x	x	1%	x	11	-2.3	x
CCOc1ccc2[nH]c(=O)c(C(c3nnnn3C3CCCCC3)N3CCN(C)CC3)cc2c1 (stereo not drawn)	2	-5%	2%	6%	-7	0.2	25µM*
Cc1ccc(S(=O)(=O)N2C[C@@H]3[C@H]4CC[C@H](C4)[C@@H]3[C@@H](C)[C@@H]2c2cn(Cc3ccccc3)c3ccc(F)cc23)cc1	-11	x	x	19%	x	x	-0.1%
COc1ccc(/C=C2\N=C(c3c(-c4ccccc4)noc3C)OC2=O)cc1OC	0	-54%[inhibitor]	27%	3%	7	u	-0.2%
Cc1ccc(N/C=C(/C#N)c2ccsc2)cc1	-6	21%	-19%	-12%	-17	6.5	0.3%
COc1cccc(CNC(=O)c2cccc(NC(=O)CC3SC(N4CCCCC4)=NC3=O)c2)c1 (stereo not drawn)	4	23%	x	4%	1	x	0.4%
COCc1c(C(=O)N/N=C\c2cccnc2)nnn1-c1nonc1N	3	4%	11%	-6%	-3	1.4	x
CCN(C(=O)c1ccc2c(c1)OCO2)C1CCS(=O)(=O)C1 (stereo not drawn)	10	21%[15.4 µM]	x	-9%	5	x	0.3%
COC(=O)c1c(C(=O)NCc2ccccc2)ncn1CC(O)COc1ccccc1 (stereo not drawn)	4	13%	5%	-5%	-14	6.4	-13%
CCOc1ccccc1OCc1nn2c(-c3ccc(C)cc3)nnc2s1	3	-4%	u	0%	-3	2.8	-1.8%
COc1ccc(OC(=O)NCCc2ccccc2)cc1	0	17%	19%	10%	6	2.1	x
COC(=O)Cc1c(O)ccn(Cc2ccc3c(c2)OCO3)c1=O	-2	-8%[15.4 µM]	3%	14%	4	4.1	0.4%
CNc1cc(C(F)(F)F)nc(-c2ccccn2)n1	-3	1%	-1%	3%	19	4.8	-10%
C=CCN(CC(=O)Nc1c(C)cccc1CC)C(=O)SCCC	9	-5%	2%	0%	-10	7.5	2.0%

Screens (PubChem BioAssay)
